From PubChem BioAssay
Arbovirus anti = arbovirus infection inhibition. arbovirus infection cell-based antiviral screen. inhibition, % at 10 µM. 200,000 compounds, 0.37% hits. AID 1251;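 active = inhibition from about 30%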;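 also: bluetongue infection of BSR cells; cell survival read as ATP light after 72 h; 0% = infected wells without compound and 100% = uninfected wells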
Mtb betalactam = beta-lactam sensitization of Mtb H37Rv; AID 434955; 330,000 compounds, 0.27% hits; M. tuberculosis H37Rv growth with meropenem, percent inhibition; hits of this screen are not shown here; inhibition, % at 25 µM;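 active = about 74% or more and at least 40 points above the plate without the antibiotic, then above 30% in a dose series; inconclusive = first-round hits that could not be retested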;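 also: growth measured after seven days incubation then overnight dye step; 0% = bacteria only wells and 100% = bacteria with antibiotic; twin plates without the antibiotic show which effects depend on it; some results filed as inactive read as strong as hits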
RecA intein inh = Mtb RecA intein splicing inhibition; P9WHJ3; cell-free RecA intein splicing, fluorescence; inhibition, %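 (about 9 µM by stock and volumes)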; 290,000 compounds, 0.75% hits; in the data active = inhibition above about 30%; inconclusive = no clear call, values can overlap the other calls;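 also: 0% = vehicle wells and 100% = reference inhibitor control wells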
Target sequence (P9WHJ3 whole entry, looked up): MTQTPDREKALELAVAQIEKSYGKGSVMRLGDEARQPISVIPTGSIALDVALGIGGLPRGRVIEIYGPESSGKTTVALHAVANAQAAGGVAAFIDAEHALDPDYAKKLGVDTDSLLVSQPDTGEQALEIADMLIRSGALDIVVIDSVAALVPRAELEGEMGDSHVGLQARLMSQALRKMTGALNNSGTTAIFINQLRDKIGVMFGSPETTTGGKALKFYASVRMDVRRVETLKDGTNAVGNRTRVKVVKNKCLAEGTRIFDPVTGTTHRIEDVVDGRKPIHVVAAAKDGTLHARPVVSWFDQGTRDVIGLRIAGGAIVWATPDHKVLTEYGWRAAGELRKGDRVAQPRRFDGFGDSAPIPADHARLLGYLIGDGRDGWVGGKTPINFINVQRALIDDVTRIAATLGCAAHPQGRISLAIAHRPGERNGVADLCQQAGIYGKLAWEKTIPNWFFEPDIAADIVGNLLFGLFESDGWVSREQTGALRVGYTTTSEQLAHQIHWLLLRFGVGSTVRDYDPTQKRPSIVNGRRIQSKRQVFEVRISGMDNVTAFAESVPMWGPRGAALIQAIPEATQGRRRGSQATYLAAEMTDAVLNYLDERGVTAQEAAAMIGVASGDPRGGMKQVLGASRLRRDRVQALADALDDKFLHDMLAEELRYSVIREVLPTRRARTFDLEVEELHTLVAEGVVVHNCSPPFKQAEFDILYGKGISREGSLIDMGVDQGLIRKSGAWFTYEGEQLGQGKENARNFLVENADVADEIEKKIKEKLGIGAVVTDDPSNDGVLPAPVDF
YopH inh = blocks Yersinia enterocolitica YopH tyrosine phosphatase. fluorescence Ex485/Em525. inhibition, %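 (about 10 µM by stock and volumes)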. AID 898. 140,000 compounds, 0.16% hits;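 active = inhibition of 50% or more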;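 also: controls were vehicle for no effect and minimum signal wells for full effect; inactives centre near -20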
Mtb H37Rv = M. tuberculosis H37Rv growth inhibitors, H37Rv strain (AID 1626) | M. tuberculosis H37Rv growth inhibition; higher % means a stronger effect | one-dose inhibition, % at 10 µM; IC50 in µM for titrated hits | 220,000 compounds, 0.95% hits;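 active = confirmed in a dose series; inconclusive = inhibition above 80% but not taken into the dose series; inactive = below 80% or under 30% at every dose of the series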;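 also: bacteria incubated seven days before Alamar blue readout; 0% = bacteria only wells and 100% = bacteria with antibiotic wells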
Numbers without * were called inactive; ? = inconclusive; nt = not tested or not shown. Only part of the results is shown; rates above refer to the full screens.

1	CCOCCCNC(=O)CNC(=S)N(Cc1ccc(C)cc1)Cc1ccco1
2	CCn1c(SCC(=O)Nc2ccc(N(C)C)cc2)nnc1-c1ccco1
3	CCCCCn1c(CN2CCCCC2CC)nc2c1c(=O)n(C)c(=O)n2C (configuration not stated)
4	N#Cc1c(-c2ccccc2F)cc(-c2cccnc2)nc1N
5	O=S(=O)(NCc1ccccc1)c1ccc2c(c1)OCCO2
6	COc1ccccc1N1CCN(Cc2ccc3c(c2)OCO3)CC1
7	CCn1ccnc1CNC(=O)c1ccc(OC2CCN(C(=O)COC)CC2)cc1
8	COc1ccc(OC)c(C(=O)c2coc3ccc(O)c(CN4CCOCC4)c23)c1
9	Cc1cccc(Cn2ccc(N)n2)c1
10	CCc1cc(C(=O)OC)c(NC(=O)CN2CCN(C(=O)C3CCCO3)CC2)s1 (configuration not stated)
Assay by compound | 1 | 2 | 3 | 4 | 5 | 6 | 7 | 8 | 9 | 10
Arbovirus anti | 7 | nt | nt | -9 | -2 | nt | nt | 4 | 15 | nt
Mtb betalactam | 3 | -12 | -3 | -2 | -6 | -11 | 2 | 12 | 1 | -3
RecA intein inh | 0.0 | -7.9 | 1.1 | 2.4 | -0.5 | 0.5 | 1.9 | 20 | -6.7 | 1.2
YopH inh | nt | nt | -21 | -47 | 13 | nt | nt | 12 | nt | nt
Mtb H37Rv | -4% | nt | 67% | 5% | 3% | nt | nt | -3% | 5% | nt

Brought forward from above: two compounds; new compounds follow.
9	Cc1cccc(Cn2ccc(N)n2)c1
10	CCc1cc(C(=O)OC)c(NC(=O)CN2CCN(C(=O)C3CCCO3)CC2)s1 (configuration not stated)
11	COc1ccc(N(C(=O)c2cccc([N+](=O)[O-])c2)S(=O)(=O)c2cccs2)cc1
12	CCc1c(C#N)c(SCCC(=O)Nc2ccc(C)cc2)nc2c1C(=O)CC(C)(C)C2
13	COc1ccc(C(CC(=O)N2CCCCC2)NC(=O)C(F)(F)F)cc1 (configuration not stated)
14	Cc1c(Cl)cccc1NC(=O)CSc1ncnc2c1cnn2CCO
15	COc1ccc(/C=C2/C(=O)N(Cc3ccco3)C(=O)N(C(C)C)C2=O)cc1
16	COc1ccc(N2CCN(C(=O)c3cc(=O)c4cc(Cl)ccc4o3)CC2)cc1
17	CN1CCN(C(=O)c2cc3c(=O)n4ccccc4nc3s2)CC1
18	FC(F)(F)c1nnc(-c2ccccc2)nc1Oc1ccc(Cl)cc1Cl
19	COc1ccc(CCNCC2CCCO2)cc1 (configuration not stated)
20	O=C(NCc1ccccn1)c1nc(Cn2ccc([N+](=O)[O-])n2)no1
Assay by compound | 9 | 10 | 11 | 12 | 13 | 14 | 15 | 16 | 17 | 18 | 19 | 20
Arbovirus anti | 15 | nt | -6 | -8 | 6 | nt | 5 | nt | nt | 6 | nt | nt
Mtb betalactam | 1 | -3 | -11 | -24 | 1 | 5 | -6 | 7 | -4 | 12 | 8 | 0
RecA intein inh | -6.7 | 1.2 | 22 | 3.6 | -1.8 | -1.7 | 7.7 | -0.4 | -106 | 61* | -0.6 | 0.8
YopH inh | nt | nt | nt | -7 | nt | nt | -20 | nt | nt | -19 | nt | nt
Mtb H37Rv | 5% | nt | 0% | -1% | 4% | nt | 3% | nt | nt | nt | nt | nt

21	CC(=O)c1cccc(N(C(=O)c2csnn2)C(C(=O)NC2CCCC2)c2ccccc2)c1 (configuration not stated)
22	COc1cccc(-c2cccc(NC(=O)C3CCN(Cc4cccc(C)n4)CC3)c2)c1
23	Cn1c(=O)c2c(nc(NCc3ccco3)n2CC(O)COc2ccccc2)n(C)c1=O (configuration not stated)
24	Cc1c(Cl)c([N+](=O)[O-])nn1CC(=O)N1CCN(Cc2ccccc2)CC1
25	c1ccc(C2N3CCCN23)cc1 (configuration not stated)
26	Cc1cc(C=C(C#N)C#N)c(C)n1-c1ccccc1
27	O=C(Nc1ccc(Cl)cn1)c1cccc2ccccc12
28	NC(=O)c1c(NC(=O)Cn2nc(C(=O)O)c3ccccc3c2=O)sc2c1CCCC2
29	O=S(=O)(NCc1ccc(Cl)cc1Cl)c1ccc(N2CCOCC2)nc1
30	CCOC(=O)c1cc(-c2ccc(C)o2)n[nH]1
Assay by compound | 21 | 22 | 23 | 24 | 25 | 26 | 27 | 28 | 29 | 30
Arbovirus anti | nt | nt | 7 | -2 | -3 | 18 | nt | nt | nt | 0
Mtb betalactam | 2 | -1 | -1 | -10 | 3 | 1 | 7 | 19 | 11 | -1
RecA intein inh | 0.7 | 0.2 | 2.0 | 5.1 | 1.3 | 1.9 | -8.9 | 2.8 | nt | -6.5
YopH inh | nt | nt | 2 | nt | -28 | -30 | nt | nt | nt | -5
Mtb H37Rv | nt | nt | nt | -8% | -9% | 5% | nt | 18% | -6% | -6%

Only Mtb H37Rv, YopH inh and RecA intein inh (7 entries from above):
nr | molecule | Mtb H37Rv | YopH inh | RecA intein inh
19 | COc1ccc(CCNCC2CCCO2)cc1 (configuration not stated) | nt | nt | -0.6
20 | O=C(NCc1ccccn1)c1nc(Cn2ccc([N+](=O)[O-])n2)no1 | nt | nt | 0.8
21 | CC(=O)c1cccc(N(C(=O)c2csnn2)C(C(=O)NC2CCCC2)c2ccccc2)c1 (configuration not stated) | nt | nt | 0.7
22 | COc1cccc(-c2cccc(NC(=O)C3CCN(Cc4cccc(C)n4)CC3)c2)c1 | nt | nt | 0.2
23 | Cn1c(=O)c2c(nc(NCc3ccco3)n2CC(O)COc2ccccc2)n(C)c1=O (configuration not stated) | nt | 2 | 2.0
24 | Cc1c(Cl)c([N+](=O)[O-])nn1CC(=O)N1CCN(Cc2ccccc2)CC1 | -8% | nt | 5.1
25 | c1ccc(C2N3CCCN23)cc1 (configuration not stated) | -9% | -28 | 1.3

The listing continues.
31	CC(=O)NNc1cc(N2CCOCC2)nc(N2CCOCC2)n1
32	COCCn1nnnc1C(c1cc2cc(C)cc(C)c2[nH]c1=O)N1CCN(c2ccccc2F)CC1 (configuration not stated)
33	Nn1c(-c2ccccc2)cc(-c2ccccc2)cc1=O
34	Cc1ccc(-n2c(CCC(=O)O)ccc2-c2cccs2)cc1
35	CCC(=NC1CC1)c1c(O)n(C2CCCCC2)c(=O)[nH]c1=O
36	CCc1ccccc1NC(=S)N(CCN1CCCCCC1)Cc1ccco1
37	O=C1NCCCc2c1oc1ccc(O)cc21
38	CC(=O)N1c2ccc(S(=O)(=O)NCCC(=O)Nc3ccc(F)cc3C)cc2CC1C (configuration not stated)
39	O=C(CN1CCCC1)NC12CC3CC(CC(C3)C1)C2
40	CCOC(=O)CC(NC(=O)CCc1c(C)nc2ncnn2c1C)c1ccc(C)cc1 (configuration not stated)
Assay by compound | 31 | 32 | 33 | 34 | 35 | 36 | 37 | 38 | 39 | 40
Arbovirus anti | 4 | 14 | nt | -5 | -1 | -6 | 8 | nt | 0 | 1
Mtb betalactam | 0 | 7 | 46 | 1 | -3 | -4 | -12 | 5 | 1 | -4
RecA intein inh | -2.5 | -1.0 | -0.5 | -0.6 | 0.3 | 1.1 | -1.9 | 1.1 | -0.3 | -0.6
YopH inh | nt | -10 | nt | -22 | -49 | nt | -34 | nt | -27 | nt
Mtb H37Rv | 0% | -3% | nt | 1% | -3% | -3% | -11% | nt | -4% | 4%

41	O=S(=O)(c1ccc(Cl)cc1)n1nnc2ccccc21
42	C=Cn1ccnc1P(=S)(c1ccc(N(C)C)cc1)c1nccn1C=C
43	Cc1noc(C(F)(F)F)c1C(=O)NNC(=O)c1ccccc1
44	CCC(=O)NCCC(c1ccco1)c1ccccc1OC (configuration not stated)
45	Cn1c2c(c3cc([N+](=O)[O-])ccc31)CCCC2
46	Cc1cc(C(=O)OCC(=O)Nc2cccc(S(N)(=O)=O)c2)c2ccccc2n1
47	Oc1ccccc1/C=C/c1noc(-c2ccccc2O)n1
48	O=C(NCCN1CCOCC1)c1cc2ccccc2oc1=O
49	CC(C)CCn1cnc2c(oc3nc4c(cc32)CCCC4)c1=O
50	COc1cc(CNCc2cc(OC)ccc2OC)cc(OC)c1
Assay by compound | 41 | 42 | 43 | 44 | 45 | 46 | 47 | 48 | 49 | 50
Arbovirus anti | 5 | 4 | nt | 8 | nt | nt | 25 | nt | nt | nt
Mtb betalactam | -8 | -6 | -6 | 1 | -6 | -3 | -5 | -5 | -6 | 0
RecA intein inh | nt | -0.3 | nt | 4.7 | -0.6 | -3.6 | -0.4 | -1.6 | -2.0 | -0.9
YopH inh | -96 | -26 | nt | -2 | nt | nt | nt | nt | nt | nt
Mtb H37Rv | -10% | -4% | -5% | 1% | nt | -4% | -4% | nt | 2% | nt

51	CN1CCCN(C(=O)c2ccc(Cl)s2)CC1
52	COc1ccc2c(c1OC)C(=O)N(c1ccccc1)C2=O
53	Cc1ccc(CC(C(=O)O)C(C)C(=O)Nc2ccc(F)cc2)cc1 (configuration not stated)
54	O=c1c(-c2nc3ccccc3s2)cccn1Cc1ccc(Cl)c(Cl)c1
55	CCOCCCNCC(O)c1ccccc1 (configuration not stated)
56	COc1ccc(-c2csc(/C(C#N)=C(\O)CSc3nccn3C)n2)cc1OC
57	CCOc1ccccc1C(=O)Nc1cnn(Cc2ccc(F)cc2)c1
58	COc1nc(NC(C)(C)C)nc(Oc2ccc(=O)n(-c3ccccc3)n2)n1
59	C=CCNC(=O)COC(=O)c1cc(S(=O)(=O)N2CCOCC2)ccc1N1CCCCC1
60	Cc1ccccc1C(=O)OC(C)CN1CCOCC1 (configuration not stated)
Assay by compound | 51 | 52 | 53 | 54 | 55 | 56 | 57 | 58 | 59 | 60
Arbovirus anti | nt | -4 | nt | -7 | -3 | 2 | -15 | 12 | 2 | 4
Mtb betalactam | -1 | -7 | -2 | -15 | -1 | 34 | 13 | -14 | -1 | -3
RecA intein inh | 9.5 | nt | -0.5 | -12 | -1.0 | -5.5 | 5.8 | -1.4 | nt | -0.8
YopH inh | nt | nt | nt | -9 | -47 | 0 | -3 | -58 | -28 | nt
Mtb H37Rv | nt | -5% | nt | -23% | -7% | -2% | 2% | -23% | ? | -5%

Continued, starting with the last 4 of the part before.
57	CCOc1ccccc1C(=O)Nc1cnn(Cc2ccc(F)cc2)c1
58	COc1nc(NC(C)(C)C)nc(Oc2ccc(=O)n(-c3ccccc3)n2)n1
59	C=CCNC(=O)COC(=O)c1cc(S(=O)(=O)N2CCOCC2)ccc1N1CCCCC1
60	Cc1ccccc1C(=O)OC(C)CN1CCOCC1 (configuration not stated)
61	COc1ccc(-c2cc(C(=O)N3CC(C)CC(C)C3)c3ccccc3n2)cc1 (configuration not stated)
62	COC(C(=O)NNC(=O)Cc1ccc(Cl)cc1)c1ccccc1 (configuration not stated)
63	COc1cc(C(C(=O)NC(C)(C)C)N(Cc2ccccc2)C(=O)c2cnccn2)cc(OC)c1OC (configuration not stated)
64	CCC(=O)NNC(=O)c1cc(COc2cc(Cl)cc(Cl)c2)on1
65	CN1C(=O)NC(c2ccccc2)C2=C1CN(Cc1ccccc1)C2=O (configuration not stated)
66	COc1ccc(O)c(CN2CCCC(C(=O)c3ccccc3SC)C2)c1 (configuration not stated)
67	Cc1ccc(S(=O)(=O)Nc2ccccc2/C=N/c2nc3ccccc3n2C)cc1
68	CC(=O)/C(=N\Nc1ccccc1)Sc1cccc2cccnc12
69	Cc1nc(SCCOc2ccccc2)[nH]c(=O)c1Cc1ccccc1
70	O=[N+]([O-])c1cc(F)c(N2CCCC2)cc1N1CCNCC1
Assay by compound | 57 | 58 | 59 | 60 | 61 | 62 | 63 | 64 | 65 | 66 | 67 | 68 | 69 | 70
Arbovirus anti | -15 | 12 | 2 | 4 | nt | nt | -2 | nt | nt | 16 | -4 | -1 | 4 | -7
Mtb betalactam | 13 | -14 | -1 | -3 | -15 | -6 | 0 | 8 | 13 | 6 | -1 | -7 | 3 | -2
RecA intein inh | 5.8 | -1.4 | nt | -0.8 | 4.7 | 2.3 | -0.2 | -0.2 | -0.1 | -1.7 | nt | -2.2 | -0.6 | -1.4
YopH inh | -3 | -58 | -28 | nt | nt | nt | -47 | nt | -24 | nt | -18 | 4 | nt | nt
Mtb H37Rv | 2% | -23% | ? | -5% | nt | -1% | -7% | 14% | -3% | -3% | -3% | 2% | 2% | 4%

71	Cn1c(NC(=O)c2ccco2)cc(=O)n(C)c1=O
72	CCOc1cc(C(=O)O)cc(Cl)c1OCC#N
73	CN(C)S(=O)(=O)c1cccc(NC(=S)NN=C(Cc2ccccc2)Cc2ccccc2)c1
74	CCC(C)NC(=O)C(Cc1ccccc1)NS(=O)(=O)c1ccc2c(c1)CCC(=O)N2 (configuration not stated)
75	Cc1noc(NC(=O)c2cccc(C(F)(F)F)c2)c1Cl
76	O=C(c1ccccc1F)N1CCCC(C(=O)N2CCN(c3ccccc3)CC2)C1 (configuration not stated)
77	Nc1nc(Cl)cc(NCCc2ccccc2)n1
Assay by compound | 71 | 72 | 73 | 74 | 75 | 76 | 77
Arbovirus anti | 0 | 7 | -13 | nt | 11 | nt | 24
Mtb betalactam | 3 | 2 | 2 | 0 | 0 | -10 | 3
RecA intein inh | 1.6 | -4.7 | 9.7 | -0.6 | 1.0 | -6.5 | -0.2
YopH inh | -57 | -48 | -19 | nt | nt | nt | nt
Mtb H37Rv | -1% | -8% | -2% | nt | 4% | 3% | 5%
